High-throughput results deposited in PubChem by several laboratories.
UUG fidelity – modulators of yeast start codon fidelity, primary screen, whole organism, S. cerevisiae, single point, plate reader. activity score, % at 18.7 µM. S. cerevisiae UUG-firefly luciferase reporter, luminescence/redox ratio. actives 0.13% (n = 350,000). AID 602363, 2012;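 active = replicate mean at a twofold rise or more, about +100% in these data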;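 note: firefly luciferase made from a UUG start codon reports start codon fidelity; reporter light over untreated wells divided by growth signal over untreated wells; some hits fall short of that in this replicate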
MT1-MMP act inh – blockers of MT1-MMP proenzyme processing, primary screen, HT1080 RFP-PRO-GFP cells, GFP/RFP fluorescence. GFP/RFP ratio change, % at 20 µM. Matrix metalloproteinase-14 (Homo sapiens), P50281. GFP/RFP ratio fluorescence, overnight; percent of plate control window, DMSO zero. actives 0.061% (n = 360,000);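 active = GFP/RFP ratio change of at least 30% with cell ATP level not reduced by more than half and red fluorescence within 50% of control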; note: strong numbers were not always called active
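Assay system: HT1080 cells carrying an RFP-PRO-GFP reporter | Dosing: Single dose of 20 µM compound, 1% DMSO final | Incubation: Cells overnight before dosing, compound overnight, 37 °C, 5% CO2 | Evaluation: GFP/RFP fluorescence ratio | Control set: DMSO and RFP-L50D-GFP cell wells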
MT1-MMP act inh RFP – recorded beside MT1-MMP act inh, whose call it bears; RFP signal change, %; measured here: RFP expression control read;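 0 = vehicle wells; hits needed this value within 50% of zero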
* marks the source's active call; other numbers are inactive results; & = joins results of further samples. Only part of the results is shown; rates above refer to the full screens.

UUG fidelity,MT1-MMP act inh,Molecule,MT1-MMP act inh RFP
95,2,CCN(CC)C(=O)C1=C(C)N(Cc2ccc(OC)cc2)C(=O)C(CC(=O)NCCN2CCOCC2)C1 (stereo not drawn),5
-10,4,CCOc1ccc(OCCC(=O)N(CCOC)c2c(N)n(Cc3ccccc3)c(=O)[nH]c2=O)cc1,2
-9,-3,CCN(CC)CCCNC(=O)c1ccc(S(=O)(=O)Nc2ccc(C)c(C)c2)cc1,2
6,2,CCCCn1c(N)c(N(CCOC)C(=O)CCN2C(=O)C3CC=CCC3C2=O)c(=O)[nH]c1=O (stereo not drawn),3
-11,-1,O=C(CCl)N1CCN(S(=O)(=O)Cc2ccccc2)CC1,0
4,-1,COc1ccc(OC)c(S(=O)(=O)N2CCN(C(=O)c3cc(C4CC4)nn3-c3ccccc3)CC2)c1,-2
0,3,COc1c2c(c(CCC(=O)O)c3c1C=CC(C)(C)O3)OC(C)(C)C=C2,-2
3,3,C=CCN(Cc1ccc(Cl)s1)C(=O)CNC(=O)CNC(=O)c1ccc(Cl)cc1Cl,-3
19,1,COc1ccc(-c2nc3ccc(C)cn3c2Cc2cccc(Cl)c2)cc1OC,-4
-12,-2,CCOC(=O)C1(C)CCCCCN1C(=O)/C=C/c1ccccc1 (stereo not drawn),0
-19,3,Cc1ccc(C)c(OCCC(=O)N(C)CC(=O)Nc2c(C)cccc2C)c1,3
-11,1,Cn1nc(C#N)c(=O)[nH]c1=O,4
-8,6,COc1ccc2cc(C3=CCCC3(C)C(=O)O)ccc2c1 (stereo not drawn),4
-21,3,CCNC(=O)C1(C)CCN(Cc2ccccc2C#N)C1 (stereo not drawn),4
-21,0,CC1=C(C(=O)N2CCOCC2)CC(CC(=O)NC2CC2)C(=O)N1Cc1ccc(F)cc1 (stereo not drawn),-2
-9,-15,Cc1cc(O)c2c(c1O)C(=O)[C@]13C(=C2O)C(=O)[C@@H]2[C@@H](O)[C@H]1[C@@H]1[C@H](O)[C@H]3C(=O)C3=C(O)c4c(O)cc(C)c(O)c4C(=O)[C@]312,-25
-9,0,OCC[C@@H]1C[C@H](O)[C@@H](O)[C@@]2(OCCc3cc(Cl)ccc32)O1,0
0,-114,O=C(NCc1cccc(F)c1)c1cccc2c1C(=O)c1ccc(N3CCC(Cc4ccccc4)CC3)cc1S2(=O)=O,-6
-8,3,Cc1ccc(S(=O)(=O)N2C[C@H]3[C@H]4C(=O)N(C)C(=O)[C@H]4CC(=O)[C@H]3[C@@H]2c2ccccc2F)cc1,5
-12,-1,C=CC(=O)Nc1cccc(Oc2ccnc3[nH]ccc23)c1,-7
25,-1,O=C(c1cccc(S(=O)(=O)N2CCc3ccccc32)c1)N1CCN(c2ccccc2)CC1,-8
-21,-6,COc1ccc(O)c(C(=O)c2cnn(C(=O)c3ccc(C)cc3)c2)c1,-2
-11,2,C#Cc1ccc(NC(=O)C2(C)CCN2C(=O)c2cc(C)n(C)n2)cc1 (stereo not drawn),1
11,-3,CCOc1ccccc1N1CCN(CC(=O)Nc2ccnn2C2CCCC2)CC1,-15
-2,6,CC1=C(C(=O)N2CCCCCC2)CC(CC(=O)NCc2cccs2)C(=O)N1Cc1ccccc1 (stereo not drawn),7
-13,-23,CNC(=O)c1cc(Oc2ccc(NC(=O)c3[nH]c(-c4ccccc4)c4c3C(=O)N(C)C4=O)cc2)ccn1,-22
0,-1,CN(Cc1ccc2c(c1)OCO2)C(=O)c1cc(-c2ccccc2)c(N2CCOCC2)s1,-9
-9,0,CC[C@]12C(=O)N(C)C[C@H]([C@@H]3C(=O)N(C)C(=O)[C@@H]31)N2C(=O)c1ccc(Cl)c(Cl)c1,2
-5,2,O=C(CCCN1C(=O)NC2(CCCC2)C1=O)Nc1ccc(F)cc1,3
-9,2,COc1ccccc1C(C)NC(=O)CCC(=O)N1CCN(S(=O)(=O)c2ccc(Cl)cc2)CC1 (stereo not drawn),-13

Single records (already shown). Order of values: UUG fidelity	MT1-MMP act inh	MT1-MMP act inh RFP
COc1ccc(O)c(C(=O)c2cnn(C(=O)c3ccc(C)cc3)c2)c1 is listed with -21	-6	-2
COc1ccc(-c2nc3ccc(C)cn3c2Cc2cccc(Cl)c2)cc1OC is listed with 19	1	-4
O=C(CCCN1C(=O)NC2(CCCC2)C1=O)Nc1ccc(F)cc1 is listed with -5	2	3
CC1=C(C(=O)N2CCOCC2)CC(CC(=O)NC2CC2)C(=O)N1Cc1ccc(F)cc1 (stereo not drawn) is listed with -21	0	-2
OCC[C@@H]1C[C@H](O)[C@@H](O)[C@@]2(OCCc3cc(Cl)ccc32)O1 is listed with -9	0	0

The listing picks up; the two compounds before the break are reprinted first.
UUG fidelity,MT1-MMP act inh,Molecule,MT1-MMP act inh RFP
-5,2,O=C(CCCN1C(=O)NC2(CCCC2)C1=O)Nc1ccc(F)cc1,3
-9,2,COc1ccccc1C(C)NC(=O)CCC(=O)N1CCN(S(=O)(=O)c2ccc(Cl)cc2)CC1 (stereo not drawn),-13
-43,0,CC(C)n1nccc1NS(=O)(=O)c1ccccc1,1
-6,4,CC1C(=O)N(Cc2cn(CCC3OCCCO3)nn2)CCS(=O)(=O)N1Cc1ccc(-c2ccc(F)cc2)cc1 (stereo not drawn),-9
-21&-14,-2,O=C(C[C@H]1C[C@H]2c3cc(NS(=O)(=O)c4ccc(F)cc4)ccc3O[C@H]2[C@H](CO)O1)NCc1ccncc1,-1
15,1,COc1ccc(N2CCN(C(=O)COC(=O)c3ccc(CSC)o3)CC2)cc1,3
-13,-1,CC(=O)c1c(C)[nH]c(C(=O)OCC(=O)NCc2cccs2)c1C,-22
2,-2,CCCn1c(SCC(=O)N(C2CCCCC2)C2CCS(=O)(=O)C2)n[nH]c1=O (stereo not drawn),-2
-14,-2,N#Cc1ccc(OCC(=O)N2CCN(C(=O)c3ccco3)CC2)cc1,1
-5,-11,CCOC(=O)c1ccc(-c2cccc(-c3cc(=O)oc4cc(OC)cc(OC)c34)c2)cc1,-8
-1,5,COc1ccc(NC(=O)c2cc(C3CCCCN3C(=O)OCC(C)C)on2)c(C)c1 (stereo not drawn),-4
-5,-22,CCCCn1c(N)c(N(C(=O)CSc2nnnn2-c2ccc(C)cc2)C2CCCC2)c(=O)[nH]c1=O,-18
-11,-2,COc1ccc([C@H]2C[C@H](n3cc(-c4ccc(F)cc4)nn3)[C@@H](O)CN2C(=O)C2CCCCC2)cc1,-11
-1&-2,9,COC(=O)N(C)C[C@@H]1OCc2cnnn2CCCC(=O)N([C@H](C)CO)C[C@H]1C,9
-5,-4,Cc1ccccc1N1CCN(C(=O)c2cc(C3CC3)nn2-c2ccccc2)CC1,-5
-16,1,CCc1nc2c(OCc3c(C)noc3C)cccn2c1N(C)C(=O)C(C)C,3
-20,3,CC1CCCCC1NC(=O)COC(=O)/C=C/c1ccco1 (stereo not drawn),-1
-21,-1,CCCCc1nnc(NC(=O)CCN2C(=O)C3CC=CCC3C2=O)s1 (stereo not drawn),1
-15,6,CCCCN(C(=O)c1ccc2c(c1)S(=O)(=O)N=C1CCCCCN12)c1c(N)n(CC(C)C)c(=O)[nH]c1=O,2
-1,1,Cc1nn2c(=O)cc(COC(=O)c3c(F)cccc3Cl)nc2s1,0
-6,2,CCOC1=C2[C@@H](CN(S(=O)(=O)c3ccccc3)[C@H]2c2ccccc2)[C@H]2C(=O)N(c3ccccc3)C(=O)[C@H]2C1,1
-12,-4,Cc1ccc(NC(=O)Cc2ccc(Cl)cc2)cc1S(=O)(=O)N1CCCCCC1,-26
-10,-4,C[C@@H](N)C(=O)N[C@H]1CCC2C3CC=C4C[C@@H](O)CC[C@]4(C)C3CC[C@@]21C (stereo partly drawn),1
2,5,COc1cccc(NC(=O)COC(=O)CCC(=O)c2cccs2)c1,3
-10,3,Cc1ccccc1C(=O)N1[C@@H](C(C)C)COc2cc(Br)ccc2S1(=O)=O,-3
-22,-3,CCN1C(=O)[C@H]2[C@@H](c3ccc(C)cc3)N[C@]3(CCCN(Cc4ccco4)C3=O)[C@H]2C1=O,-1
-11,1,Cc1ccccc1-c1n[nH]nc1C1=CC(=O)CC(C)(C)C1,-1
-4,-2,Cc1nc2ccc(NC(=O)c3oc4ccc(F)cc4c3C)cc2s1,2
-20,0,COc1ccc(S(=O)(=O)N2CCN(C(=O)C3COc4ccccc4O3)CC2)cc1 (stereo not drawn),-2
12,0,Cc1cccc(C(=O)NCCC(=O)NCc2ccccc2F)c1,5
5,-6,CN(CC(=O)Nc1ccccc1Br)C(=O)c1ccccc1OCc1ccc(Cl)cc1,-2
-16,17,Cc1ccc(S(=O)(=O)N2CCN(C(=O)COC(=O)COc3ccc(Cl)cc3)CC2)c(C)c1,3

Pulled by compound from above, two records:
UUG fidelity,MT1-MMP act inh,Molecule,MT1-MMP act inh RFP
-20,3,CC1CCCCC1NC(=O)COC(=O)/C=C/c1ccco1 (stereo not drawn),-1
-6,2,CCOC1=C2[C@@H](CN(S(=O)(=O)c3ccccc3)[C@H]2c2ccccc2)[C@H]2C(=O)N(c3ccccc3)C(=O)[C@H]2C1,1

Three entries from above, with values under each structure.
Second line of a record – UUG fidelity	MT1-MMP act inh	MT1-MMP act inh RFP
> CCOC1=C2[C@@H](CN(S(=O)(=O)c3ccccc3)[C@H]2c2ccccc2)[C@H]2C(=O)N(c3ccccc3)C(=O)[C@H]2C1
  -6	2	1
> Cc1ccc(NC(=O)Cc2ccc(Cl)cc2)cc1S(=O)(=O)N1CCCCCC1
  -12	-4	-26
> C[C@@H](N)C(=O)N[C@H]1CCC2C3CC=C4C[C@@H](O)CC[C@]4(C)C3CC[C@@]21C (stereo partly drawn)
  -10	-4	1

(continued)
UUG fidelity,MT1-MMP act inh,Molecule,MT1-MMP act inh RFP
-11,-1,O=S(=O)(CCNCc1ccco1)NC1CCCCC1,-1
-13,-2,O=C(COC(=O)COc1ccccc1)Nc1ccc(Cl)cn1,2
-35,-3,CCN(CC(=O)Nc1c(F)cccc1F)C(=O)c1ccccn1,2
-15,-2,Cc1c(NC(=O)CSc2nc3ccccc3c(=O)n2C(C)C)c(=O)n(-c2ccccc2)n1C,-2
-10,-6,COc1ccc2ccc(O)c(CN3CCN(S(=O)(=O)c4cccc(C(F)(F)F)c4)CC3)c2c1,-3
3,0,CCN1C(=O)[C@H]2[C@@H](c3ccccc3)N[C@]3(CCCN(Cc4ccc(C)cc4)C3=O)[C@H]2C1=O,1
-18,25,CCOc1cc(N2CCOCC2)c(OCC)cc1NC(=O)c1[nH]c(C)c(C(C)=O)c1C,5
-20,-3,CCCN(Cc1nnc(-c2cccs2)o1)C(=O)c1cc(S(=O)(=O)N2CCOCC2)ccc1C,-3
-6,-2,COc1ccc(CN2CCN(C(=O)CCC(=O)c3ccc(C)s3)CC2)cc1OC,-5
9,-2,CC1=C(C(=O)N(C(C)C)C(C)C)CC(CC(=O)NCc2cccc3ccccc23)C(=O)N1Cc1ccccc1 (stereo not drawn),-7
-13,1,Cn1c(N)c(C(=O)CSc2nnc(-c3c[nH]c4ccccc34)n2C2CC2)c(=O)[nH]c1=O,5
-14,5,S=c1[nH]cc(Oc2ccc(Cl)cc2Cl)c(=S)[nH]1,-1
-25,6,COc1ccccc1NS(=O)(=O)c1cc(NC(=O)C2=NNC(=O)CC2)ccc1C,-2
2,-1,CCCCN(C(=O)COC(=O)c1ccccc1)c1c(N)n(CCC)c(=O)[nH]c1=O,3
-19,6,CC(C)CN(C(=O)CSc1ccc2c(c1)OCCO2)c1c(N)n(CC(C)C)c(=O)[nH]c1=O,7
-7,3,COc1ccc(C(=O)NCC(C)(C)N2CCOCC2)cc1S(=O)(=O)N1CCCC1,2
-5,1,CC(C)NC1(C#N)CCN(Cc2ccccc2)CC1,4
-9,1,CC(NC(=O)CSc1nc(C2CC2)n(-c2ccccc2)n1)c1ccco1 (stereo not drawn),1
-22,-1,COc1ccc(NC(=O)c2cc(-c3ccc(F)cc3OC(C)C)n[nH]2)cn1,-6
-12,-2,O=C(NCc1ccccc1)c1cc(C2CCCCN2C(=O)OCCF)on1 (stereo not drawn),2
-8,-6,CC(=O)c1ccc(N2CCN(C(=O)C3CCN(C(=O)Nc4ccccc4)CC3)CC2)cc1,-7
-26,-5,CC(C)C1C(=O)N(Cc2cn(CC3CCCCC3)nn2)CCS(=O)(=O)N1Cc1ccc(-c2cccc(CO)c2)cc1 (stereo not drawn),-25
-16,0,NC(c1ccccc1)c1csc(NC(=O)NCC2CCCCC2)n1 (stereo not drawn),4
0,-4,CCC(C)N(C(=O)CSc1nc(C)nc2ccccc12)C1CCS(=O)(=O)C1 (stereo not drawn),-1
8,-1,Cc1ccc(C2(c3ccccc3)NC(=O)N(CC(=O)NC3CCS(=O)(=O)C3)C2=O)cc1C (stereo not drawn),2
-6,1,Cc1cc(C)cc(C(=O)N2CCCCC2)c1,3
